Source: PubChem
Beta2AR agonist = beta2AR agonists driving receptor internalization, primary screen, cell-based, FAP fluorogen, flow cytometry. Am2.2-beta2AR cells; reference of the scale not given here. response, % (test concentration not listed). 340,000 tested, 0.43% active;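 active = response above a set limit, near 3 SD of response in nonfluorescent compounds, cut at about 42% in these data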;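 also: stock transfer was 100 nL into about 11 µL; a reference agonist was the positive control; negative values mostly stem from fluorescent compounds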
Calb FLC = C. albicans growth inhibition with fluconazole, primary screen, CaCi-2 strain, Alamar Blue fluorescence | C. albicans CaCi-2 (fluconazole-resistant clinical isolate) + fluconazole, 48 h | growth inhibition, % (no concentration beside the values) | 300,000 tested, 0.57% active;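 active = most replicates above 75%; inconclusive = exactly half above 75%; inactive = most below 75%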;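 also: all wells also contain fluconazole at 8 µg/ml as a sub-toxic cotreatment; 0% = median of DMSO wells and 100% = median of geldanamycin control wells; wells of about 8 µL received 7.5 nL stock; the first replicate is given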
LANA-H2A inh = blockers of LANA interaction with H2A/H2B – biochemical, FP readout, HTS, primary screen | cell-free LANA-H2A/H2B peptide, fluorescence polarization | 320,000 tested, 0.6% active | Protein LANA1 (Human herpesvirus 8 type P (isolate GK18)), Q9QR71 | inhibition, % (no concentration beside the values); in the data active = inhibition mostly above about 10%, no sharp cut-off; inactive = mostly below about 6.7%;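 also: stock transfer was 7.5 nL into about 10 µL; 0% = median of vehicle wells and 100% = median of positive control wells; one replicate is shown; the record names a cut of 25% in any replicate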
Target sequence (Q9QR71 whole entry, looked up): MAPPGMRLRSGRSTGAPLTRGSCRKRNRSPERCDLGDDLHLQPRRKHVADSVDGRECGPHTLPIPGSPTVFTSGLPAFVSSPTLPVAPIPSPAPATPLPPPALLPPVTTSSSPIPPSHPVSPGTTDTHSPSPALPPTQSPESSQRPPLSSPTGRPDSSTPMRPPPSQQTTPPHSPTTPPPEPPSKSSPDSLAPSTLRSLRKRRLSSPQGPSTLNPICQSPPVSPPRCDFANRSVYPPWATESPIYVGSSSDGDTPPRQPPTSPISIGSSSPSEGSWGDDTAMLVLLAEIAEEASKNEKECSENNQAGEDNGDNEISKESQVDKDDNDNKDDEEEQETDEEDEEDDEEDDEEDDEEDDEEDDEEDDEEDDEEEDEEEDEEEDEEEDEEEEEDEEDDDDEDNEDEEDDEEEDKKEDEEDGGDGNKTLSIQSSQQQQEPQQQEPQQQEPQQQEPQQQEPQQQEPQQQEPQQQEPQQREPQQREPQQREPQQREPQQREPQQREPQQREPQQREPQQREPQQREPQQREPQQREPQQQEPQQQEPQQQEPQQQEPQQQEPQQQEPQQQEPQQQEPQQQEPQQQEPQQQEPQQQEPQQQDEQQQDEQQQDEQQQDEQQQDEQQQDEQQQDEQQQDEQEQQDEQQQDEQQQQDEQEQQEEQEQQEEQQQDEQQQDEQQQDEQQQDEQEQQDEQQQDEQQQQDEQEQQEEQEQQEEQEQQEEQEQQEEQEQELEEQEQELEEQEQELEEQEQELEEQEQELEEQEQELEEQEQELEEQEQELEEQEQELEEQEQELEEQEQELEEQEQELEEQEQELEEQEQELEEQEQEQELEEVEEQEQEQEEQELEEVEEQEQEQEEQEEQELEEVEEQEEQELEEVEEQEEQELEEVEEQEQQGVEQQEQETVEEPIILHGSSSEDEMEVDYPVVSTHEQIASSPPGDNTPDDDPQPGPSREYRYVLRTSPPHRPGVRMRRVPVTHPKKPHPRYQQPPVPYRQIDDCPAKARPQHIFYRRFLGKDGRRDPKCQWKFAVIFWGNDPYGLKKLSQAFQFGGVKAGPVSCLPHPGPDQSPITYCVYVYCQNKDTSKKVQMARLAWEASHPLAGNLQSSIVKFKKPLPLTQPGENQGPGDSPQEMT
T cruzi inh = inhibitors of intracellular T. cruzi growth, primary screen, luminescence, NIH3T3 host cells | T. cruzi beta-gal in NIH3T3, 90 h | 300,000 tested, 1.4% active | inhibition, % (concentration not given with the values) | AID 1885, 2009;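 active = mean inhibition across valid replicates above about 55%, limit read from the data; inconclusive = mean below that limit but half or more replicates reach it; inactive = mean below it, under half of replicates reach it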;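 also: signal also drops with host cell toxicity which is not excluded here; 0% = plate median of DMSO wells and 100% = zero luminescence signal; higher percent means less beta-gal luminescence so fewer parasites; stock transfer was 50 nL into about 50 µL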
Beta cell apopt = inhibitors of cytokine-induced beta cell apoptosis, primary screen, luminescence; INS-1E cytokine-induced death, ATP luminescence, 48 h; percent of positive-control rescue, neutral wells zero; protection from apoptosis, % (no concentration beside the values); 300,000 tested, 0.8% active;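 active = all replicates at 75% or more, or half of them and the mean; inconclusive = half reach 75% but not the mean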;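 also: 0% = cytokine-treated negative control wells and 100% = positive control rescue; higher means more ATP so stronger rescue from cytokine killing; wells of about 40 µL received 100 nL stock; the first replicate is given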
ALR inh = inhibitors of human ALR sulfhydryl oxidase, primary screen, biochemical, H2O2 detection, HRP-luminol luminescence, single point; AID 485317, 2010; inhibition, % (no concentration beside the values); FAD-linked sulfhydryl oxidase ALR (Homo sapiens), P55789; purified ALR, DTT oxidation; 290,000 tested, 3.8% active;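 active = mean and each replicate at 75% or more; inconclusive = only one of the two met; inactive = neither met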;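 also: stock transfer was 7.5 nL into about 7.5 µL; 0% = neutral wells and 100% = wells with inactivated enzyme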
Ecoli rRNA inh = reduced GFP signal of wild-type E. coli, primary screen, bacterial rRNA inhibitor project, GFP/RFP fluorescence, OD600, single point; GFP signal change (wild-type ribosome), % (test concentration not listed); E. coli WT GFP vs humanized-ribosome RFP mutants, 24 h; stronger effect = lower value; DMSO median 0, no signal -100; 350,000 tested, 1.6% active;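 active = significant combined selectivity score with lowered wild-type GFP, culture density cut under 30%, mutant RFP and density less affected; inactive = any of these conditions unmet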; also: one replicate is shown; some compounds called inactive have numbers as strong as hits
A1 inh = caspase 3/7 activation in MEF A1-2A-BIM cells, primary screen, A1 inhibitor project, cell-based, luminescence, HTS; AID 2462, 2010; Caspase-Glo 3/7 luminescence, 3 h; percent of clofoctol response, vehicle zero; 330,000 tested, 0.066% active; caspase activation, % (no concentration beside the values);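 active = over half of replicate activation scores above 10%, or exactly half above 10 with the replicate mean above 10; inconclusive = replicate mean below 10 yet half the replicates above 10; inactive = over half of replicates below 10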;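 also: wells of about 30 µL received 50 nL stock; many hits fall short of the cut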
Ecoli rRNA inh OD600 = further read-out of Ecoli rRNA inh, marked with its call; OD600 change, %; measured here: OD600 growth;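 optical density of the mix in the first replicate; 0 = DMSO median and -100 = no signal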
Ecoli rRNA inh RFP = second read-out of Ecoli rRNA inh, no call of its own (marks repeat the call); RFP signal change, %; measured here: RFP humanized mutant strains;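 first replicate; 0 = DMSO median and -100 = no signal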
The depositor's hits bear a star; ? = inconclusive; . = no result given. Some of the compounds tested; rates above refer to the full screens.

Values run as follows: Beta2AR agonist	Calb FLC	LANA-H2A inh	T cruzi inh	Beta cell apopt	ALR inh	Ecoli rRNA inh	Ecoli rRNA inh OD600	Ecoli rRNA inh RFP	A1 inh
Cc1ccccc1-n1c(C)cc(/C=C2\NC(=O)NC2=O)c1C
  10	33	-0.3	9	-1	-11	.	.	.	0.1
Cc1cc(O)cc(O)c1C(=O)Cc1cnn(-c2ccccc2)c1
  -1	6	0.2	3	2	39	.	.	.	-0.2
Cc1occc1C(=O)Nc1c(F)c(F)c(F)c(F)c1F
  -1	14	1.9	-14	-7	97*	.	.	.	-1.3
Cc1ccccc1C(=O)N1CCC(C(=O)Nc2ccc(C)c(S(=O)(=O)N3CCCCC3)c2)CC1
  6	.	2.6	.	19	-4	-9	-29	2.8	-0.7
CN(C)C(=O)COC(=O)c1cccnc1Nc1ccccc1F
  -6	18	-1.9	-9	-10	-8	0	2	3.7	-0.2
COc1ccc(C(=O)NC2CCN(C(=S)Nc3cccc(C)c3C)CC2)cc1
  1	-8	3.3	-21	1	-2	12	7	-1.2	0.8
O=C(Nc1nnc(/N=C/c2ccco2)s1)c1ccc(F)cc1
  9	-1	1.2	-12	9	1	.	.	.	-1.7
CC(C(=O)N1CCCCCC1)c1ccc([N+](=O)[O-])cc1 (centres undefined)
  3	-5	19	-18	-5	-1	6	-1	-2.2	0.4
O=C(NCc1nnc(SCC(=O)N2CCCCC2)o1)c1c(F)cccc1Cl
  8	-3	0.7	-4	1	4	7	9	-3.5	0.1
COc1ccc(C(=O)Nc2ccccc2C(=O)N2CCOCC2)cc1OC
  2	-2	-7.8	-8	-3	-5	4	-3	2.5	0.8
Cn1c(CC(=O)Nc2ccccc2)n[nH]c1=S
  3	21	0.5	-9	-3	23	6	2	-16	0.0
O=C1CN(C(=O)C2CCCC2)CCN1
  3	5	-4.1	-9	-5	2	.	.	.	0.4
O=c1c2ccccc2c(C=NCc2ccccn2)c(O)n1-c1ccccc1
  -7	-10	2.1	7	4	-5	1	2	-1.6	-0.2
CCN(CC)S(=O)(=O)c1ccc(Cl)c(NC(=O)c2ccncc2)c1
  -1	?	-1.2	0	-3	0	16	3	0.0	0.2
COc1cc(OC)cc(N2C(=O)CC(N3CCC(C(=O)N4CCCCC4)CC3)C2=O)c1 (centres undefined)
  -1	-16	-11	-8	6	-18	-4	8	-0.3	0.4
COc1ccc(-c2nc(=S)c3c([nH]2)Oc2ccc(C)cc2C3)cc1O
  7	6	-6.8	11	-4	-20	9	1	-2.4	-0.2
Cc1ccccc1OCCn1cc(C=O)c2ccccc21
  22	-3	9.1	0	3	-7	3	-2	-1.1	-0.3
COc1ccc(N2C(=O)CC2(C#N)c2ccc(OCc3ccccc3)cc2)cc1 (centres undefined)
  -4	-3	-0.9	24	-6	-4	1	12	-2.7	-0.3
Cn1nc(Cc2cccc3ccccc23)c(C#N)c1N
  -2	2	5.8	-2	-7	-4	5	11	6.9	-0.1
COc1ccc(Cl)cc1NC(=O)CSc1sc2c(O)cc(=O)[nH]c2c1C#N
  -3	3	-3.2	11	-9	99*	6	8	0.7	2.2
COc1ccc(-c2cc(CNC(=O)CN3CCN(C)CC3)on2)cc1
  -5	3	-1.7	0	-10	0	.	.	.	?
Cc1ccc(S(=O)(=O)N2CCN(c3ccc(C(=O)N4CCOCC4)cc3[N+](=O)[O-])CC2)cc1
  -1	20	0.8	-11	7	-46	.	.	.	-0.6
COc1ccccc1CNC(=O)CCCn1nc(C)c2c(C)n(-c3ccc(C)cc3)nc2c1=O
  -2	-7	-1.0	12	3	-3	0	5	-0.5	0.7
Cc1cc2ccccc2c(=O)n1CC(=O)NCC1COc2ccccc2O1 (centres undefined)
  -5	-8	6.5	-5	-1	-3	.	.	.	-1.4
Cc1cccc(N=N/C(=C\O)C(=O)c2cccs2)c1
  18	-16	-3.3	29	13	53	-4	-10	-1.1	-0.5
COc1ccc(OC)c(NC(=O)COC(=O)/C=C/c2ccc(Cl)cc2)c1
  -4	-5	-4.4	-2	6	-6	.	.	.	-1.1
CCOC(=O)c1c(S(=O)(=O)NCC(=O)Nc2ccccc2)c(C)n(C)c1C
  -1	10	-1.4	-15	0	-3	7	3	0.6	0.4
COc1ccccc1Nc1nc(Cl)nc(Nc2ccccc2OC)n1
  -5	2	-1.5	16	-1	7	20	17	-6.7	-0.1
Cc1occc1-c1nnc(SCC(=O)Nc2ccccc2N2CCCCC2)n1C
  6	-9	-5.9	-9	5	0	.	.	.	-0.6
O=C(CN1C(=O)C(=O)N(Cc2ccco2)C1=O)c1c[nH]c2ccccc12
  18	25	-0.8	-5	-2	.	11	2	-4.5	-0.3
CCN(CC)CCNC(=O)C1(O)c2cc(Br)ccc2NC(=O)N1c1ccccc1 (centres undefined)
  3	1	1.3	1	-7	-15	4	7	0.6	-0.1
COc1ccccc1C(=O)NC(=O)COC(=O)Cc1ccc(F)cc1
  58*	.	-2.4	.	-7	-5	6	13	3.4	0.0
CC(CNC(=O)CN1C(=O)COc2ccc(S(=O)(=O)N3CCCCC3)cc21)c1ccccc1 (centres undefined)
  4	-12	6.4	13	-5	1	-3	-16	7.2	-0.7
CCN1CCN(C(=O)c2ccc(Cl)c(S(=O)(=O)N3CCCCC3)c2)CC1
  9	-12	-0.2	-2	1	-3	3	9	-1.2	0.1
COc1ccc(CNC(=O)CC2C[C@H](C(=O)N3CCCCC3)[C@@]3(C)c4[nH]c5ccccc5c4CCN3C2=O)cc1OC (some centres undefined)
  10	.	-0.3	.	-6	.	-1	-7	2.0	1.0
CC(=O)Nc1cc(C(=O)CSc2nnc(C3CC3)n2C2CC2)ccc1O
  1	.	-0.3	.	5	1	4	17	-1.6	0.7
CCN(CC)CCOc1ccc2nc(N(C)C)sc2c1
  0	18	-0.8	3	-7	-10	.	.	.	0.7
CCC(=O)c1ccc(OC(=O)c2cccs2)cc1
  2	2	-1.4	6	-4	.	.	.	.	-0.4
Clc1ccc(-c2nnc(Sc3nc4ccccc4o3)c3ccccc23)cc1
  13	26	-4.0	2	7	5	-5	-3	0.3	-0.1
CN(C)CCCNc1ncnc2oc(-c3ccccc3)c(-c3ccccc3)c12
  6	2	-6.8	42	2	-7	-14	-19	6.0	0.5
COc1ccc(CCC(=O)N2CCCC(Nc3ccc(OC)cc3)C2)cc1 (centres undefined)
  0	13	-1.4	10	3	99*	-3	-3	-0.4	0.1
C=CCNC(=S)N/N=C(\C)c1cccc(OC)c1
  -1	-2	.	-15	-3	.	.	.	.	0.5
CC(C)CN(C(=O)c1cc(Cl)nc2ccccc12)c1c(N)n(Cc2ccccc2)c(=O)[nH]c1=O
  4	5	2.8	-16	-5	-9	-2	0	1.3	-0.2
CN(C)CCCN(C(=O)COc1ccc(Cl)cc1)c1nc2cc3c(cc2s1)OCO3
  7	0	4.7	23	114*	9	-18	13	10	0.1
COC(=O)C1CCCCN1C(=O)c1cc(COc2cccc3cccnc23)on1 (centres undefined)
  -3	-11	-2.6	-2	-3	-10	-3	-8	1.2	0.6
COc1ccccc1NS(=O)(=O)c1ccc(C(=O)NCCCN2CCCC2=O)cc1
  -7	.	2.8	.	-1	-3	5	4	5.9	-1.0

No new results follow: entries from further up.
Values run as follows: Beta2AR agonist	Calb FLC	LANA-H2A inh	T cruzi inh	Beta cell apopt	ALR inh	Ecoli rRNA inh	Ecoli rRNA inh OD600	Ecoli rRNA inh RFP	A1 inh
CCN1CCN(C(=O)c2ccc(Cl)c(S(=O)(=O)N3CCCCC3)c2)CC1
  9	-12	-0.2	-2	1	-3	3	9	-1.2	0.1
COc1ccc(CNC(=O)CC2C[C@H](C(=O)N3CCCCC3)[C@@]3(C)c4[nH]c5ccccc5c4CCN3C2=O)cc1OC (some centres undefined)
  10	.	-0.3	.	-6	.	-1	-7	2.0	1.0
CC(=O)Nc1cc(C(=O)CSc2nnc(C3CC3)n2C2CC2)ccc1O
  1	.	-0.3	.	5	1	4	17	-1.6	0.7
CCN(CC)CCOc1ccc2nc(N(C)C)sc2c1
  0	18	-0.8	3	-7	-10	.	.	.	0.7
CCC(=O)c1ccc(OC(=O)c2cccs2)cc1
  2	2	-1.4	6	-4	.	.	.	.	-0.4
Clc1ccc(-c2nnc(Sc3nc4ccccc4o3)c3ccccc23)cc1
  13	26	-4.0	2	7	5	-5	-3	0.3	-0.1
CN(C)CCCNc1ncnc2oc(-c3ccccc3)c(-c3ccccc3)c12
  6	2	-6.8	42	2	-7	-14	-19	6.0	0.5
COc1ccc(CCC(=O)N2CCCC(Nc3ccc(OC)cc3)C2)cc1 (centres undefined)
  0	13	-1.4	10	3	99*	-3	-3	-0.4	0.1
C=CCNC(=S)N/N=C(\C)c1cccc(OC)c1
  -1	-2	.	-15	-3	.	.	.	.	0.5
CC(C)CN(C(=O)c1cc(Cl)nc2ccccc12)c1c(N)n(Cc2ccccc2)c(=O)[nH]c1=O
  4	5	2.8	-16	-5	-9	-2	0	1.3	-0.2
CN(C)CCCN(C(=O)COc1ccc(Cl)cc1)c1nc2cc3c(cc2s1)OCO3
  7	0	4.7	23	114*	9	-18	13	10	0.1
COC(=O)C1CCCCN1C(=O)c1cc(COc2cccc3cccnc23)on1 (centres undefined)
  -3	-11	-2.6	-2	-3	-10	-3	-8	1.2	0.6
COc1ccccc1NS(=O)(=O)c1ccc(C(=O)NCCCN2CCCC2=O)cc1
  -7	.	2.8	.	-1	-3	5	4	5.9	-1.0
